# gsp antag: qHTS for Antagonists of gsp, the Etiologic Mutation Responsible for Fibrous Dysplasia/McCune-Albright Syndrome: qHTS; gsp-mutant cells, cAMP HTRF, 30 min; control for the full effect not named in the record; Potency, µM (series often up to 76.9 µM), without a hit: at the top dose activity change, negative = inhibition, actives largely listed as inhibitors; 340,000 compounds, 0.4% hits; active = falling curve of any shape with a large fitted effect; inconclusive = falling curve, mostly with a smaller effect; inactive = flat or rising curve; cell line not stated here;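 note: intracellular cAMP measured with PDE inhibitor Ro 20-1724 present during compound exposure; potency is the fitted concentration of half-maximal effect; % is set by controls: 0 for no effect and ±100 for the full control effect; nearly all actives have a fitted effect of over 65% in size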
#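 HTRF cAMP read-out (cAMP-d2 plus anti-cAMP antibody-K in lysis buffer, 30 min RT). Before lysis, cells are exposed to compounds with […] for 30 min at 37C in DPBS containing Ca/Mg, BSA and Tween 20.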
# D2 potentiator: Beta-Arrestin HTS for Positive Allosteric Modulators of the Human D2 Dopamine Receptor: Potentiators; DiscoveRx D2 beta-arrestin cells, luminescence, 90 min; 100% = 57 uM dopamine signal; potentiation, % (no concentration beside the values); D(2) dopamine receptor (Homo sapiens), P14416; 360,000 compounds, 0.23% hits; active = potentiation of 50% or more; inconclusive = 30% to 50%; inactive = 30% or less;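 note: compound concentration not given in the record; tested on top of an EC20 dose of dopamine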
# Target sequence (P14416 whole entry, looked up): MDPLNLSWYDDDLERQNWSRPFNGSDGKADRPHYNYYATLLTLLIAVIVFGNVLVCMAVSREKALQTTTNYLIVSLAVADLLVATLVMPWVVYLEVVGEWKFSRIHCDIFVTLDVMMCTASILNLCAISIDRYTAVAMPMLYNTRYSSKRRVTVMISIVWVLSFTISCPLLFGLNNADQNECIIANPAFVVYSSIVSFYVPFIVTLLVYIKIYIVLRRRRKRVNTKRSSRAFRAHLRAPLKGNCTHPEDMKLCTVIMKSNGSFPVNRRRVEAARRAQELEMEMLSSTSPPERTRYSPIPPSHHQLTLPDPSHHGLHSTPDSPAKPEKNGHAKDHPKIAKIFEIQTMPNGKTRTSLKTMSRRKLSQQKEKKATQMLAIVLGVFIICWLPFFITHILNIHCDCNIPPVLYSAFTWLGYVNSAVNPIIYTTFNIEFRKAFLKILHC
#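 D2 cells co-treated with compound plus 50 nM dopamine (EC20) for 90 min at 37 deg C to detect potentiation. Beta-arrestin recruitment was read as enzyme-fragment luminescence after 1 h at ambient temperature. Full response was set by 57 uM dopamine.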
# D2 ag: Beta-Arrestin HTS for Positive Allosteric Modulators of the Human D2 Dopamine Receptor: Agonists; DiscoveRx PathHunter D2 beta-arrestin, luminescence, 90 min; 100% = 57 uM dopamine signal; activation, % (no concentration beside the values); 360,000 compounds, 0.084% hits; in the data active = activation above about 40%; inconclusive = about 15% to 40%; inactive = below about 15%; note: compound concentration not given in the record; the text of the record calls up to 30% inactive
#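 Agonist mode: compounds alone added to overnight-plated D2 PathHunter cells for 90 min at 37 C, with 57 uM final dopamine (EC100) defining full response. Beta-arrestin recruitment detected by chemiluminescent reagent, read after 1 h at ambient temperature.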
# CtBP-E1A blk: qHTS Assay for Inhibitors of the CtBP/E1A Interaction. 340,000 compounds, 0.49% hits. activity change, % (concentration not given with the values). AID 651724, 2012. CtBP / adenovirus E1A interaction (AlphaScreen). AlphaScreen GST-E1A/His-CtBP binding, 1536-well; hits give low values; control for the full effect not named in the record; in the data active means activity change below about -65%; inconclusive means about -30% to -65%; inactive means above about -30%; note: % is set by controls: 0 for no effect and ±100 for the full control effect
#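 Steps: dispense buffer (Tris pH 8.0, NaCl 300 mM, TCEP 1 mM, BSA, Tween 20); add 5X protein mix (GST-E1A, His-CtBP, 125 nM each); pin 23 nL compound; 2 h at 37 °C, dark; add 5X beads (50 ug/mL); 1 h; read.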
# gsp agonist: qHTS for Agonist of gsp, the Etiologic Mutation Responsible for Fibrous Dysplasia/McCune-Albright Syndrome: qHTS; gsp mutant cells, cAMP HTRF, 30 min; control for the full effect not named in the record; 340,000 compounds, 0.13% hits; Potency, µM (top dose mostly 76.9 µM), inactives show at the highest dose activation (cAMP increase), actives largely listed as activators; active = well fitted activation curve with a large enough effect; inconclusive = small, poorly fitted or top-dose-only effect, or another doubt; inactive = no such curve, though single readings can be large or run the other way; cell line not stated here;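 note: phosphodiesterase inhibitor Ro 20-1724 added with compounds to block cAMP breakdown; potency is the fitted concentration of half-maximal effect; nearly all actives have a fitted effect of over 60% in size; about a fifth of the inactives were tested at one dose only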
#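 Cells stably selected in G418 were plated at 2000/well, grown 16-24 hr, then given compounds in DMSO with the PDE inhibitor […] (300 uM solution added) for 30 min at 37C; cAMP was read by HTRF.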
# Six1-Eya2 inh: qHTS Assay for Inhibitors of the Six1/Eya2 Interaction | Homeobox protein SIX1 (Homo sapiens) + Protein phosphatase EYA2 (Homo sapiens), … | AlphaScreen GST-Six1/His-Eya2 binding, biochemical; hits give low values; control for the full effect not named in the record | activity change, % (test concentration not listed) | 360,000 compounds, 0.56% hits | AID 651725, 2012; in the data active = activity change below about -65%; inconclusive = about -30% to -65%; inactive = above about -30%; note: % is set by controls: 0 for no effect and ±100 for the full control effect
#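 Homogeneous AlphaScreen proximity assay pairing GST-Six1 with His-tagged Eya2 (added as 5X mix: 250 nM and 500 nM) in 50 mM Tris pH 8.0, 300 mM NaCl, 1 mM TCEP. Glutathione donor and nickel acceptor beads; 1 h, 37 °C, dark.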
# Numbers without * were called inactive; ? = inconclusive; · = not tested or not shown; & = joins results of further samples; [ ] = remark or other dose. Rows are unselected. Share with any hit: about 1.4%.
SMILES,gsp antag,D2 potentiator,D2 ag,CtBP-E1A blk,gsp agonist,Six1-Eya2 inh
O=C(N/N=C/c1ccc(Cl)cc1Cl)c1ccc(-n2cnnn2)cc1,-10%,1,-3.4,·,3%,-3
CCN(CC)c1ccc(N)cc1S(=O)(=O)Nc1ccc(OC)cc1,-1%,-2,1.9,-2,14%[15.4 µM],4
C[C@@H]1CN([C@@H](C)CO)C(=O)CCCn2nncc2CO[C@@H]1CN(C)C(=O)CCC(F)(F)F,·,-6,-6.5,4,-60%[inhibitor],-16
CC1(C)Cc2c(sc(NC(=O)c3ccc(S(=O)(=O)N4CCCCCC4)cc3)c2C(N)=O)C(C)(C)N1,-15%,-32,-1.5,1,23%[15.4 µM],-7
O=S(=O)(c1cccc(NC(=S)N2CCN(c3ccccc3)CC2)c1)C(F)F,-28%,-31,2.8,-2,17%,-15
CCN(CC)c1ccc(N2C(=O)/C(=C\c3cccnc3)SC2=S)cc1,-18%,-9,-3.5,3,-37%[inhibitor],-3
O=C(COC(=O)c1ccccc1C(=O)c1ccccc1)NCCc1ccccc1,-15%,-13,1.4,8,11%[15.4 µM],1
CN(Cc1ccccc1)C(=O)CCN1C(=O)c2cccc([N+](=O)[O-])c2C1=O,·,-4,2.7,2,?,1
C=CCc1cc2c(oc(=O)c3ccccc32)c(C)c1O,-1%,-7,-3.6,-9,8%,-12
Cc1ccc(S(=O)(=O)Cc2ccc(C(=O)N3CCCCCC3)o2)cc1,-6%,6,-4.3,-5,?,0
CC(C)(C)c1nnc2cccc(Cl)n12,3%,-9,6.9,·,19%,-3
O=C(N1CCOCCOc2ccccc2OCCOCC1)C(F)(F)F,5%,-1,-1.2,10,1%,-1
COc1cc(OC)c(OC)cc1CN1CCN(C(=O)CC(C)C)CC1,11%,-3,-2.6,3,-3%[15.4 µM],4
CC(/C=N/NC(=O)CSc1nc(C)cc(C)n1)=C\c1ccccc1,-23%,5,1.4,-17,3%[15.4 µM],-9
Cc1cc(C)cc(NC(=S)N2C3CCCC2CC(NC(=O)C2CC2)C3)c1 (stereo not given),-3%,-3,-3.7,0,7%[15.4 µM],1
Cc1ccc(C)c(NC(NC(=O)c2ccccn2)C(Cl)(Cl)Cl)c1 (stereo not given),0%,-25,1.6,4,1%,0
COc1ccc(N(CC(=O)NCc2cccnc2)S(=O)(=O)c2ccc(C)c([N+](=O)[O-])c2)cc1,-5%,-3,-0.9,1,-3%,-2
O=C(CCc1ccccc1Cl)Nc1cc2c(cc1C(=O)O)OCCCO2,4%,1,-2.8,·,1%,0
COc1ccc(C)cc1NC(=O)C1CC(=O)N(CCc2ccc(F)cc2)C1 (stereo not given),2%,-6,0.0,0,22%[15.4 µM],-7
COc1cc2c(cc1OC)CN(C(=O)CN1CCN(S(=O)(=O)c3ccccc3Br)CC1)CC2,-3%,0,5.4,·,2%,-1

# Given with tabs: entries from further up
Molecule	gsp antag	D2 potentiator	D2 ag	CtBP-E1A blk	gsp agonist	Six1-Eya2 inh
Cc1ccc(S(=O)(=O)Cc2ccc(C(=O)N3CCCCCC3)o2)cc1	-6%	6	-4.3	-5	?	0
CC(C)(C)c1nnc2cccc(Cl)n12	3%	-9	6.9	·	19%	-3
O=C(N1CCOCCOc2ccccc2OCCOCC1)C(F)(F)F	5%	-1	-1.2	10	1%	-1
COc1cc(OC)c(OC)cc1CN1CCN(C(=O)CC(C)C)CC1	11%	-3	-2.6	3	-3%[15.4 µM]	4
CC(/C=N/NC(=O)CSc1nc(C)cc(C)n1)=C\c1ccccc1	-23%	5	1.4	-17	3%[15.4 µM]	-9
Cc1cc(C)cc(NC(=S)N2C3CCCC2CC(NC(=O)C2CC2)C3)c1 (stereo not given)	-3%	-3	-3.7	0	7%[15.4 µM]	1
Cc1ccc(C)c(NC(NC(=O)c2ccccn2)C(Cl)(Cl)Cl)c1 (stereo not given)	0%	-25	1.6	4	1%	0
COc1ccc(N(CC(=O)NCc2cccnc2)S(=O)(=O)c2ccc(C)c([N+](=O)[O-])c2)cc1	-5%	-3	-0.9	1	-3%	-2
O=C(CCc1ccccc1Cl)Nc1cc2c(cc1C(=O)O)OCCCO2	4%	1	-2.8	·	1%	0
COc1ccc(C)cc1NC(=O)C1CC(=O)N(CCc2ccc(F)cc2)C1 (stereo not given)	2%	-6	0.0	0	22%[15.4 µM]	-7
COc1cc2c(cc1OC)CN(C(=O)CN1CCN(S(=O)(=O)c3ccccc3Br)CC1)CC2	-3%	0	5.4	·	2%	-1

# The list goes on.
SMILES,gsp antag,D2 potentiator,D2 ag,CtBP-E1A blk,gsp agonist,Six1-Eya2 inh
Cc1ccc2[nH]c3c(=O)n(N)c(=O)[nH]c3c2c1,-10%,-3,-3.9,-6,-1%[15.4 µM],-5
CCCCCCSc1cc(-c2nc3ccc(Cl)cn3c2NCCCC)ccc1OC,-4%,-3,-0.5,10&-11,·,7&-6
Cc1nc(NC(=O)Nc2ccc(Cl)cc2)sc1C,·,-6,-13,11,-10%[15.4 µM],2
O=c1c2[nH]c3ccccc3c2nc2n1CCCS2,-5%,14,4.2,0,-18%,-7
COc1ccc(/C=N/NC(=O)c2ccc(Cn3cc([N+](=O)[O-])cn3)o2)cc1O,2%,3,-0.9,-22,-2%,-28
CCCC(C)NC(=O)CSc1nc2ccc(C)cc2[nH]1 (stereo not given),13%,-8,-4.4,·,-29%,-2
CC1CCCN(C(=O)COC(=O)c2cc([N+](=O)[O-])ccc2N2CCOCC2)C1 (stereo not given),-4%,-44,-2.3,-1,-5%[15.4 µM],3
O=S1(=O)CCN(C2CCCC2)CC1,·,0,-2.4,3,-7%,-2
CN(Cc1ccccc1)C(=O)CN1C(=O)c2ccccc2S1(=O)=O,7%,-4,0.0,-2,-95%[inhibitor],4
COc1cccc(-n2nnnc2SCC(=O)Nc2cccc(C)n2)c1,-15%,-18,-0.9,9,-4%,0
CC(=O)Nc1ccc(Nc2c3c4c(cccc4n(C)c2=O)C(=O)c2ccccc2-3)cc1,8%,-5,-3.3,-21,11%[15.4 µM],-11
O=c1c2ccccc2nc2n1CCCCC2,19%,-6,0.2,11,-7%,11
O=C(Cc1ccc(S(=O)(=O)N2CCCC2)s1)N1CCN(c2ccc(F)cc2)CC1,-11%,-6,-2.8,7,3%[15.4 µM],-8
COCCNc1c([N+](=O)[O-])c(=O)n(-c2ccccc2)c2ccccc12,-9%,-7,-0.7,0,-8%,2
O=C1NC(c2ccco2)Nc2sc3c(c21)CCN(Cc1ccccc1)C3 (stereo not given),-4%,-9,1.5,-3,-35%[inhibitor],-6
CCCOc1cccc(C(=O)NC(=S)Nc2ccccc2)c1,2%,-14,0.0,0,-14%,3
COc1ccc(NS(=O)(=O)c2ccc3c(c2)Cc2ccccc2-3)cn1,28µM*,2,1.2,-9,-8%,-1
O=C(O)c1ccc(CSc2nnc(-c3ccncc3)n2-c2ccc(Cl)cc2)cc1,-10%,-5,-6.8,·,22%,5
Cc1ccc(Cl)cc1NC(=O)c1ccc(CSc2nnnn2C)cc1,-4%,4,-0.2,1,22%,0
Cn1c(CN2CCOCC2)nnc1SCC(=O)Nc1nccs1,5%,3,-2.8,5,-18%,4
Cc1ccccc1N1CCN(C2CCCN(C(=O)CCn3cnnn3)C2)CC1 (stereo not given),1%,-23,-2.6,10,14%,4
O=C(N/N=C/c1ccc(OC(=O)c2ccccc2Br)cc1)c1ccccn1,7%,8,-1.3,-3,-20%,-1
CC1=Nc2cc(C(=O)NCC3CCCO3)ccc2Sc2ccc(C)cc21 (stereo not given),9%,1,-3.7,·,-24%,13
O=c1cc(O)n(Cc2ccc(F)cc2)c(=O)[nH]1,13%,-8,-6.4,2,4%,0
O=C(COC(=O)Cn1[nH]c(=O)c2ccccc2c1=O)Nc1ccc2c(c1)OCO2,2%,-4,-3.5,5,6%,1
Cn1c(=O)c2c(-c3ccccc3)n(Cc3ccccn3)cc2n(C)c1=O,-10%,2,-1.7,-22,4%,-19
CC(=O)NCCNc1nc(NCc2cccs2)nc2ccsc12,·,-12,-7.1,3,·,-3
Nc1nc(Nc2ccccc2F)nc(NCCO)c1[N+](=O)[O-],7%,-7,-3.6,?,11%,-21
COc1ccc(-c2nc(CS(=O)CC(=O)NCc3cccnc3)c(C)o2)cc1OC (stereo not given),10%,-2,-2.0,-3,-10%,-3
COc1cc(Cl)cc(/C=C/c2ccc3ccccc3n2)c1OC(C)=O,-4%,-1,-2.2,8,6%,18
COC(=O)C1CN(C(=O)COc2cccc(C)c2C)c2ccccc2O1 (stereo not given),-19%,-4,2.3,·,21%,7
Cc1ccc(-c2nnn(CC(=O)NCCc3ccc4c(c3)OCO4)n2)o1,2%,-16,-2.9,0,-27%,-1
Cc1cccc(NS(=O)(=O)c2nnc(NC(=O)CC(C)C)s2)c1,-11%,-11,3.3,·,8%,-1
Cc1nn(-c2ccccc2)c(Cl)c1C1C(C#N)=C(N)OC2=C1C(=O)CC(C)(C)C2 (stereo not given),-7%,-4,-2.5,2,?,-1
Cc1cccc(NC(=O)CSc2nnc(-c3cnccn3)n2Cc2ccco2)c1,9%,-18,-3.6,22,-25%,9
CCc1ccc(C(=O)NCc2cnn(C)c2)s1,6%,-3,-2.0,4,-8%,2
CN(N=Cc1ccccc1)C(=S)Nc1ccccc1,·,-9,-0.4,0,1%,-1
O=C(C1CCCO1)N1CCN(C(=S)Nc2ccc(Br)cc2)CC1 (stereo not given),1%,-9,0.7,2,-1%[15.4 µM],20
O=C(c1ccc(S(=O)(=O)NCc2ccco2)cc1)N1CCN(Cc2ccccc2)CC1,-3%,3,-2.2,0,5%[15.4 µM],-14
O=C(Nc1cc(S(=O)(=O)N2CCCCCC2)ccc1OCC(F)(F)F)c1ccc(=O)[nH]c1,1%,-1,-2.1,-3,?,-7

# Source: PubChem
